VACV mCherry inh – inhibitors of vaccinia virus infection (mCherry reporter signal). Vaccinia virus mCherry reporter infection, fluorescence; about a quarter of the inactives have no number. actives 0.63% (n = 310,000). Potency, µM (series often up to 36.5 µM), without a hit: at the top dose activity change, negative = inhibition, actives largely listed as inhibitors. AID 720579; active = well fitted inhibition curve with a large enough effect; inconclusive = small, poorly fitted or top-dose-only effect; inactive = no such curve, though single readings can be large or run the other way; tested in A549 cells; further: nearly all actives have a fitted effect of over 35% in size; inactives centre near -10
VACV Venus inh – vaccinia inhibition (Venus reporter); Vaccinia virus Venus reporter expression, fluorescence; Potency, µM (top dose mostly 36.5 µM), inactives show at the highest dose activity change, negative = inhibition, usual class: inhibitors; actives 0.46% (n = 330,000); active means well fitted inhibition curve with a large enough effect; inconclusive means small, poorly fitted or top-dose-only effect; inactive means no such curve, though single readings can be large or run the other way; tested in A549 cells; further: nearly all actives have a fitted effect of over 30% in size; inactives centre near -10
The depositor's hits bear a star; & = joins results of further samples; [ ] = dose if it differs, or a comment. On the % scale 0 is the no-effect control and ±100 the full control effect; potency means the concentration at half of the fitted maximal effect.

Start of the data: the first six records as a preview:
O=C(Cc1cccs1)Nc1nnc(SCc2ccc(Br)cc2)s1 was read as VACV mCherry inh -16% and VACV Venus inh -10%.
For CCc1ccccc1NC1=CC(=O)CC(C)(C)C1 the results were VACV mCherry inh 17% and VACV Venus inh 6%.
`O=C(COc1ccc(Cl)cc1)Nc1ccccc1Cl` gave VACV mCherry inh inactive and VACV Venus inh -12%.
`Cc1cccn2c(=O)c3cc(C(=O)N4CCC5(CC4)OCCO5)n(C)c3nc12` gave VACV mCherry inh -20% and VACV Venus inh -18%.
`Nc1nonc1-n1nnc(C(=O)N/N=C/c2ccccc2)c1CSc1ccccc1` gave VACV mCherry inh 0%[7.34 µM] and VACV Venus inh 1%[7.34 µM].
For CCOC(=O)[C@]12CCC=C1N(Cc1ccc(Cl)cc1Cl)C(=O)[C@H](CC(=O)NCc1ccc(C)o1)C2 the results were VACV mCherry inh 6% and VACV Venus inh -10%.

All compounds of this part, repeating the preview:
O=C(Cc1cccs1)Nc1nnc(SCc2ccc(Br)cc2)s1 was read as VACV mCherry inh -16% and VACV Venus inh -10%.
For CCc1ccccc1NC1=CC(=O)CC(C)(C)C1 the results were VACV mCherry inh 17% and VACV Venus inh 6%.
`O=C(COc1ccc(Cl)cc1)Nc1ccccc1Cl` gave VACV mCherry inh inactive and VACV Venus inh -12%.
`Cc1cccn2c(=O)c3cc(C(=O)N4CCC5(CC4)OCCO5)n(C)c3nc12` gave VACV mCherry inh -20% and VACV Venus inh -18%.
`Nc1nonc1-n1nnc(C(=O)N/N=C/c2ccccc2)c1CSc1ccccc1` gave VACV mCherry inh 0%[7.34 µM] and VACV Venus inh 1%[7.34 µM].
For CCOC(=O)[C@]12CCC=C1N(Cc1ccc(Cl)cc1Cl)C(=O)[C@H](CC(=O)NCc1ccc(C)o1)C2 the results were VACV mCherry inh 6% and VACV Venus inh -10%.
`CCCCNC(=O)CSc1nc2cc3c(cc2c(=O)n1Cc1ccc(C(=O)NCCc2ccc(OC)c(OC)c2)cc1)OCO3` gave VACV mCherry inh -17% and VACV Venus inh -25%.
Screening CCOC(=O)N1CCN(C(=O)c2ccc3c(c2)N(Cc2ccccc2F)C(=O)c2ccccc2S3(=O)=O)CC1 returned VACV mCherry inh 0% and VACV Venus inh -2%.
`O=C(Nc1cc(-c2ccccc2)[nH]n1)c1ccccc1` gave VACV mCherry inh -3%[7.34 µM] and VACV Venus inh -16%[7.34 µM].
COCC(=O)N1CCC(Oc2ccc(C(=O)NCc3cnc(C)cn3)cc2)CC1 was read as VACV mCherry inh 6% and VACV Venus inh 0%.
Screening Cc1noc(C)c1S(=O)(=O)Nc1ccc2c(c1)C(=O)N([C@H](C)CO)C[C@H](C)[C@@H](CN(C)Cc1ccc(C(=O)O)cc1)O2 returned VACV mCherry inh inactive and VACV Venus inh -8%.
`COc1cc(/C=c2\sc3n(c2=O)CCCN=3)ccc1O` gave VACV mCherry inh -21% and VACV Venus inh inconclusive.
C=CCOC(=O)C1=C[C@@H](c2ccc(C(F)(F)F)cc2)C[C@@H](OCc2ccc(CO)cc2)O1 was read as VACV mCherry inh -11% and VACV Venus inh -19%.
Screening CC1CC(C)CN(C(=O)Cc2c(C(=O)O)[nH]c3ccc(Cl)cc23)C1 (configuration not stated) returned VACV mCherry inh inactive and VACV Venus inh -5%.
CC(c1ccccc1)N1CC(C(=O)N2CCN(Cc3ccc(C#N)cc3)CC2)CC1=O (configuration not stated) was read as VACV mCherry inh -5% and VACV Venus inh -15%.
For Cc1ccc(C(C)C)c(OCC(=O)NNC(=O)C2CSC3(C)CCC(=O)N23)c1 (configuration not stated) the results were VACV mCherry inh -10% and VACV Venus inh -3%.
For O=C(O)C1=CCCNC1 the results were VACV mCherry inh -20%&-19% and VACV Venus inh -12%&-6%&-15%.
Screening COCC1CCN(Cc2cn[nH]c2-c2cc(OC)c(OC)c(OC)c2)CC1 returned VACV mCherry inh -26% and VACV Venus inh 2%.
Screening CC(NC(=O)C1CCN(S(=O)(=O)c2ccc(F)cc2)CC1)c1ccccc1 (configuration not stated) returned VACV mCherry inh -13% and VACV Venus inh -5%.
`O=S(=O)(Nc1ccn(-c2ccccc2)n1)c1ccc(Br)cc1` gave VACV mCherry inh -19% and VACV Venus inh -1%.
For Nc1ccc(C(=O)OCC(=O)Nc2ccc([N+](=O)[O-])cc2C(F)(F)F)cc1 the results were VACV mCherry inh -24% and VACV Venus inh -13%.
Screening COCCCNC1=C(Cl)C(=O)c2ccccc2C1=O returned VACV mCherry inh inconclusive and VACV Venus inh -20%.
COc1cc(NC(=O)CSc2nc3ncnc(N)c3[nH]2)c(C(=O)O)cc1OC was read as VACV mCherry inh -6% and VACV Venus inh -2%.
Screening Cc1ccc(S(=O)(=O)NCc2ccc(C(=O)NCCCN3CCN(C)CC3)cc2)cc1 returned VACV mCherry inh -3% and VACV Venus inh 1%.
For COc1cccc(C(CCc2cc(OC)c(OC)c(OC)c2)NC(C)=O)c1 (configuration not stated) the results were VACV mCherry inh -12% and VACV Venus inh -2%.
For Cc1ccc(C(=O)NNC(=O)C2CCN(S(=O)(=O)c3ccc(C)cc3)CC2)cc1 the results were VACV mCherry inh inactive and VACV Venus inh -5%.
For COc1cc2c(cc1OC)CN(C(=O)/C=C/c1cc(OC)c(OC)c(OC)c1)CC2 the results were VACV mCherry inh -16% and VACV Venus inh -14%.
Screening CCN1CCN(c2csc3ccc(Cl)cc3c2=O)CC1 returned VACV mCherry inh -15% and VACV Venus inh -6%.
Screening COc1ccccc1-c1nnc(C2CCN(C(=O)c3cccc(C)c3)CC2)o1 returned VACV mCherry inh -14% and VACV Venus inh -10%.
For Cc1nc(-c2coc3cc(O)c(C)cc3c2=O)cs1 the results were VACV Venus inh -6%.
`CSc1ccc(CN(C)CC(=O)NC(=O)NC(C)(C)C)cc1` gave VACV mCherry inh -17% and VACV Venus inh -17%.
For CCCCn1nnnc1C(c1ccccc1)N1CCN(c2ccc(C(F)(F)F)cn2)CC1 (configuration not stated) the results were VACV mCherry inh -18% and VACV Venus inh -14%.
Screening O=C(Nc1ccccc1NC(=O)c1csnn1)c1csnn1 returned VACV mCherry inh -23% and VACV Venus inh -17%.
COc1ccc(S(=O)(=O)N(C(=O)C(C)C)c2ccc3oc(=O)sc3c2)cc1 was read as VACV mCherry inh inactive and VACV Venus inh -16%.
O=C(NC[C@@H]1CCCN2CCCC[C@H]12)c1cnn(-c2nccc(-c3ccco3)n2)c1C1CC1 was read as VACV mCherry inh -7% and VACV Venus inh 8%.
CCOC(=O)N1CCN(C(=O)CNS(=O)(=O)c2c(C)cc(C)cc2C)CC1 was read as VACV mCherry inh -4% and VACV Venus inh -7%.
CCC(C)NC(=O)/C=C/c1cccs1 (configuration not stated) was read as VACV mCherry inh -12% and VACV Venus inh -6%.
COc1ccc(C(=O)NC2CCN(C(=S)Nc3ccccc3C)CC2)cc1 was read as VACV mCherry inh inactive and VACV Venus inh 2%.
`Cc1cc(Nc2cccc(Cl)c2)nc2ccc(NC(=O)c3cccnc3)cc12` gave VACV mCherry inh -11% and VACV Venus inh -29%.
O=C(O)c1ccc(Cn2cnc3scc(-c4ccccc4)c3c2=O)cc1 was read as VACV mCherry inh -28% and VACV Venus inh -16%.

Fetched by compound from above (two):
Screening CCN1CCN(c2csc3ccc(Cl)cc3c2=O)CC1 returned VACV mCherry inh -15% and VACV Venus inh -6%.
CCOC(=O)N1CCN(C(=O)CNS(=O)(=O)c2c(C)cc(C)cc2C)CC1 was read as VACV mCherry inh -4% and VACV Venus inh -7%.

Further compounds
CCOC(=O)CC(c1ccc([N+](=O)[O-])cc1)n1c(C)ccc1C (configuration not stated) was read as VACV mCherry inh -10% and VACV Venus inh -14%.
`CSc1nc2sc3c(c2c(=O)[nH]1)CCC(C)C3` (configuration not stated) gave VACV mCherry inh -15% and VACV Venus inh -3%.
Cn1c(N)c(C(=O)CNC2CCCCC2)c(=O)n(C)c1=O was read as VACV mCherry inh inactive and VACV Venus inh -2%.
COc1ccc(-n2nc(C(=O)NCC(=O)N3CCN(c4ccccn4)CC3)c3ccccc3c2=O)cc1Cl was read as VACV mCherry inh inactive and VACV Venus inh -2%.
Cn1nnc(NC(=S)NC(=O)c2ccccc2)n1 was read as VACV mCherry inh -11% and VACV Venus inh -6%.
For COc1cc(C(=O)Nc2cc(C)c(O)c(-c3nc4ccccc4s3)c2)cc(OC)c1OC the results were VACV mCherry inh -7% and VACV Venus inh -6%.
For Cc1ccc(S(=O)(=O)NC(C(=O)Oc2ccc3c(C(F)(F)F)cc(=O)oc3c2)c2ccccc2)cc1 (configuration not stated) the results were VACV mCherry inh -11% and VACV Venus inh -12%.
Screening O=C1C(Cc2ccccc2)C(c2ccccc2)N1c1ccccc1 (configuration not stated) returned VACV Venus inh -11%.
For O=C(Nc1ccccc1F)c1nc[nH]c1C(=O)NCc1ccccc1 the results were VACV mCherry inh inactive and VACV Venus inh inconclusive.
For COC(=O)C1=C(c2cccc(C#N)c2)C[C@@H]2CC[C@H]1N2C(=O)N1CCC(O)CC1 the results were VACV mCherry inh inactive and VACV Venus inh 2%.
`NC(c1ccccc1)c1csc(Nc2ccc(C(=O)NCCO)cc2)n1` (configuration not stated) gave VACV mCherry inh -6% and VACV Venus inh 2%.
Screening COc1ccc(NC(=O)c2cc(-c3cc(C)cs3)[nH]n2)cc1OC returned VACV mCherry inh 7% and VACV Venus inh 17%.
CCC(=O)Nc1sc(C(=O)N2CCCCC2)c(C)c1C#N was read as VACV mCherry inh inconclusive and VACV Venus inh -4%.
For Cc1ccc(C(=O)NNC(=O)CSc2nnc3ccccn23)cc1 the results were VACV mCherry inh -3% and VACV Venus inh -12%.
For CCOC(=O)CN1C(=O)S/C(=C/c2ccc(C)o2)C1=O the results were VACV mCherry inh inactive and VACV Venus inh -4%.
`Cc1ccc(S(=O)(=O)/N=C(/c2ccccc2)N2CCOCC2)cc1` gave VACV mCherry inh -5% and VACV Venus inh -13%.
Screening O=[N+]([O-])c1ccc(-c2nn(-c3ccccc3)cc2/C=N/n2c(-c3ccncc3)n[nH]c2=S)cc1 returned VACV mCherry inh -12% and VACV Venus inh -13%.
O=[N+]([O-])c1ccccc1N(S(=O)(=O)c1ccccc1)S(=O)(=O)c1ccccc1 was read as VACV mCherry inh -15% and VACV Venus inh -8%.
For O=C(CSc1nnnn1C1CCCC1)NCCc1ccccc1 the results were VACV mCherry inh inactive and VACV Venus inh -5%.
`CCCCNS(=O)(=O)c1ccc(S(=O)(=O)NCc2ccncc2)cc1` gave VACV mCherry inh inconclusive and VACV Venus inh -27%.
`CN1N=C(C(=O)N2CCCC(C(=O)c3cccc(C(F)(F)F)c3)C2)CCC1=O` (configuration not stated) gave VACV mCherry inh inactive and VACV Venus inh -13%.
Screening CCOC(=O)CCCNC(=O)COC(=O)c1cc2ccccc2cc1O returned VACV mCherry inh -6% and VACV Venus inh -10%.
`Cc1ccc(C(=O)NCC(=O)OCC(=O)NCCNC(=O)COC(=O)CNC(=O)c2ccc(C)cc2)cc1` gave VACV mCherry inh -8% and VACV Venus inh 0%.
For CCC(C)(NC(=O)c1ccccn1)C(=O)NC1CCCC1 (configuration not stated) the results were VACV mCherry inh inactive and VACV Venus inh -12%.
Screening CC(=O)Nc1ccc(OCCCN2CCC(C(O)(c3ccccc3)c3ccccc3)CC2)cc1 returned VACV mCherry inh -13% and VACV Venus inh -12%.
For Cc1noc(C)c1CSCC(=O)Nc1nc2ccc(F)cc2s1 the results were VACV mCherry inh -6% and VACV Venus inh -16%.
COc1ccc2c(/C=N/NS(=O)(=O)c3ccc(C)cc3)c[nH]c2c1 was read as VACV mCherry inh inconclusive and VACV Venus inh 1%.
`O=C(CN1CCOCC1)NCCc1ccccc1` gave VACV mCherry inh 0% and VACV Venus inh -9%.
`Cc1c(CCC(=O)O)c(=O)oc2c(C)c3occ(-c4ccc(Cl)cc4)c3cc12` gave VACV mCherry inh -22% and VACV Venus inh -18%.
`CC(=O)c1cccc(NC(=O)COC(=O)c2ccc(S(C)(=O)=O)c([N+](=O)[O-])c2)c1` gave VACV mCherry inh -10% and VACV Venus inh -14%.
CCCNC(=O)NC(C(=O)OC)C12CC3CC(CC(C3)C1)C2 (configuration not stated) was read as VACV Venus inh inconclusive.
Screening COc1ccc(CCNC(=O)CSc2cccc3cccnc23)cc1OC returned VACV mCherry inh -17% and VACV Venus inh -12%.
Cc1ccc(N2CCN(S(=O)(=O)c3ccc4oc(=O)ccc4c3)CC2)c(C)c1 was read as VACV mCherry inh -22% and VACV Venus inh -2%.
`O=C(NCCC1=CCCCC1)c1cc(S(=O)(=O)N2CCOCC2)c(Cl)cc1Cl` gave VACV mCherry inh -5% and VACV Venus inh -22%.
CCN(CC)CCNC(=O)CN1N=C(c2ccc(OC)cc2)CCC1=O was read as VACV mCherry inh 0% and VACV Venus inh -4%.
`COc1cccc(NC(=O)CSc2nnc(-c3cccc(OC)c3)o2)c1` gave VACV mCherry inh -11% and VACV Venus inh 2%.
For O=c1[nH]c(CN2CCN(c3ccc([N+](=O)[O-])cc3)CC2)nc2ccsc12 the results were VACV Venus inh inconclusive.
O=C(O)c1cc(S(=O)(=O)O)cc(Nc2c3ccccc3nc3ccccc23)c1O was read as VACV mCherry inh 26% and VACV Venus inh -2%.
Fc1cnc(N2CCOCC2)nc1N1CCc2ccccc21 was read as VACV Venus inh -27%.
Screening CCOc1ccc(OCC)c(NC(=O)CCC(=O)N2CCOc3ccccc32)c1 returned VACV mCherry inh 0% and VACV Venus inh 0%.
Screening COc1cccc(NC(=S)N/N=C2\CC3CCC2(C)C3(C)C)c1 (configuration not stated) returned VACV mCherry inh -19% and VACV Venus inh -17%.
`COc1cc(NC(=O)NCc2ccncc2)cc(OC)c1OC` gave VACV mCherry inh -14% and VACV Venus inh -11%.
